Bioassay records deposited in PubChem by National Center for Advancing Translational Sciences (NCATS).
Vaccinia mCherry – inhibitors of vaccinia virus infection (mCherry reporter signal); 310,000 compounds, 0.63% hits; Vaccinia virus mCherry reporter infection, fluorescence; about a quarter of the inactives have no number; Potency, µM (doses to about 36.5 µM), for the others: at the top dose activity change, negative = inhibition, actives largely listed as inhibitors; active = well fitted inhibition curve with a large enough effect; inconclusive = small, poorly fitted or top-dose-only effect; inactive = no such curve, though single readings can be large or run the other way; tested in A549 cells; further: nearly all actives have a fitted effect of over 35% in size; inactives centre near -10
Vaccinia Venus – inhibitors of vaccinia virus (Venus reporter); Vaccinia virus Venus reporter expression, fluorescence; Potency, µM (doses to about 36.5 µM), for the others: at the top dose activity change, negative = inhibition, hits mostly inhibitors; 330,000 compounds, 0.46% hits; AID 720580; active means well fitted inhibition curve with a large enough effect; inconclusive means small, poorly fitted or top-dose-only effect; inactive means no such curve, though single readings can be large or run the other way; tested in A549 cells; further: nearly all actives have a fitted effect of over 30% in size; inactives centre near -10
Active calls of the source: *; i = inactive; ? = inconclusive; · = no result given; & = joins results of further samples; [ ] = remark or other dose. On the % scale 0 is the no-effect control and ±100 the full control effect; potency means the concentration at half of the fitted maximal effect.

compound,Vaccinia mCherry,Vaccinia Venus
O=C(Nc1ccc(-n2cnnn2)cc1)C1CCCN1C(=O)NC1CCCCC1 (stereo not drawn),-9%,-10%
COc1ccccc1NS(=O)(=O)c1ccc(C)c(C(=O)NCCCN2CCCC2=O)c1,i,-13%
CSc1ccccc1OCc1cc(C(=O)NC(C)Cc2cccc(C)n2)no1 (stereo not drawn),-9%,-21%
CCCC(=O)N1CCC1(C)C(=O)NS(=O)(=O)c1ccc(C)cc1 (stereo not drawn),-3%,4%
O=C(Cc1cccs1)NCCn1ccc2ccccc21,i,-8%
O=C(Nc1ccc(Cl)cc1)C1CCC(=O)N1Cc1ccccc1Cl (stereo not drawn),·,-13%
Cc1cccc(NC(=O)CSc2nccn2Cc2ccco2)c1C,i,-24%
CC1(Cc2ccc(Cl)cc2)C(=O)Nc2ccc(-c3cccnc3)cc21 (stereo not drawn),i,-10%
Cc1ccc2nc(-c3ccncc3)cc(C(=O)N3CCC4(CC3)OCCO4)c2c1,·,-4%
COc1ccc2[nH]c3c(c2c1)CCN1C(=O)C(CC(=O)NCc2ccco2)C[C@H](C(=O)N2CCOCC2)[C@@]31CCC1CCCC1 (stereo partly drawn),?,?
CC(=O)Nc1ccc(S(=O)(=O)NNC(=O)NC23CC4CC(CC(C4)C2)C3)cc1,-11%,-24%
COc1ccc(Cl)cc1NC(=O)CN1c2ccccc2CC1C (stereo not drawn),-14%,-6%
CN(CC(=O)Nc1ccc(F)cc1)C(=O)CN1C(=O)c2cccc([N+](=O)[O-])c2C1=O,i,-11%
Nc1nnc(SCc2cn3cc(Cl)ccc3n2)s1,i,-7%
COc1cc(/C=C2\SC(=Nc3ccccc3)NC2=O)cc(Cl)c1O,-14%,432%[activator]
CN(C)CCCNc1oc(/C=C/c2ccc(F)cc2)nc1C#N,-12%,-2%
CC1CC(C)CN(CC(=O)N2CCCc3c2c(=O)oc2ccc(OCc4ccccc4)cc32)C1 (stereo not drawn),-24%,?
COC(=O)c1cnc2c(c1C(=O)OC)c(=O)n(C)c(=O)n2C,-16%,-9%
Cc1ccc(-c2nnc(NCc3nc4ccccc4[nH]3)c3ccccc23)cc1S(=O)(=O)N(C)C,-13%,-20%
CC(C)CC1C(=O)N(Cc2cn(CCC3OCCCO3)nn2)CCS(=O)(=O)N1Cc1ccc(-c2cccc(CO)c2)cc1 (stereo not drawn),i,-18%
Cc1cccc(-n2c(O)c(/C=N/NC(=O)c3ccncc3)c(=O)[nH]c2=O)c1,?,1%
COC(=O)C1=C(C)NC(=O)NC1c1ccc2ccccc2c1 (stereo not drawn),-13%,-11%
COc1ccc(-c2ccnc3[nH]n(-c4ccccc4)c(=O)c23)cc1,0%&-7%,-11%&7%
CC(=O)NS(=O)(=O)c1ccc(NC(=O)CC23CC4CC(CC(Br)(C4)C2)C3)cc1,-5%,-6%
COC(=O)CSc1ncc2c(n1)-c1ccccc1N(Cc1cccc(F)c1)S2(=O)=O,3%,12%
CCN(CC)c1ccc(CN2CC=C(c3ccc(F)cc3)CC2)cc1,·,-23%
Cc1nn2c3ccccc3n(CC(=O)c3cccs3)c2nc1=O,17%,5%
Nc1c(C(=O)OCC(=O)Nc2cccc([N+](=O)[O-])c2)[nH]c(=O)[nH]c1=O,-15%,-2%
CC(C)NC(=S)Nc1ccc(S(=O)(=O)Nc2ncccn2)cc1,-17%,-10%
COc1cnn(-c2ccc(C)cc2)c(=O)c1SCc1ccccc1,·,-15%
COc1ccc(-c2nnn(Cc3ccccc3)n2)cc1OC,-1%,-10%
CCOc1ccccc1NC(=O)C(=O)NCCC1=CCCCC1,-12%,-3%
COc1ccc(OC2C(=O)N(Cc3ccc4c(c3)OCO4)C2c2sccc2C)cc1 (stereo not drawn),-7%,-10%
COc1cc(/C=C2\CCOC2=O)cc(OC)c1OC,-14%,2%
Cc1ccc(S(=O)(=O)N(C)C)cc1NC(=O)COC(=O)CCC(=O)c1ccc(F)cc1,-2%,-9%
Cc1cccc(OCC(O)Cn2c(NCCCOC(C)C)nc3c2c(=O)[nH]c(=O)n3C)c1 (stereo not drawn),·,-6%
Cc1sc(NC(=O)C2=COCCO2)nc1-c1ccc(Br)cc1,-27%,-16%
CCOC(=O)C1CCN(C(=O)C(C)Oc2ccc(Br)cc2)CC1 (stereo not drawn),-20%,-27%
COCCN(C(=S)Nc1c(C)cccc1C)C(C)c1cccnc1 (stereo not drawn),-11%,-5%
COc1ccc(-c2sc3cc4c(cc3c2-c2ccc3c(c2)OCCO3)OCO4)cc1,-8%,-13%

Some of these compounds in order of SMILES length, low to high:
compound,Vaccinia mCherry,Vaccinia Venus
Nc1nnc(SCc2cn3cc(Cl)ccc3n2)s1,i,-7%
CSc1ccccc1OCc1cc(C(=O)NC(C)Cc2cccc(C)n2)no1 (stereo not drawn),-9%,-21%
COc1ccc(-c2sc3cc4c(cc3c2-c2ccc3c(c2)OCCO3)OCO4)cc1,-8%,-13%

Next part:
compound,Vaccinia mCherry,Vaccinia Venus
CNC(=O)COC(=O)c1cc(F)c(F)cc1Cl,-10%,-4%
CCNC(=O)C1(C)CCN(C(=O)c2cccc(Cl)c2)C1 (stereo not drawn),-7%,-5%
CCOc1cc(/C=C\c2nc(O)c([N+](=O)[O-])c(=O)[nH]2)ccc1OC(C)C,i,-13%
Cc1nccn1CCCNCc1c(C(=O)N2CCCCCCC2)nc2ccc(Cl)cn12,1%,-4%
COc1ccc(-c2nc3ccc(N4CCN(C)CC4)cc3c(=O)[nH]2)cc1,-3%,-8%
Cc1ccc(S(=O)(=O)N2CCC(=O)N(CCO)CC2)cc1,i,-6%
COc1ccc(-c2c(C#Cc3ccsc3)c3cc(-c4ccc5c(c4)OCCO5)ccc3n2C)cc1,-14%,2%
CCN(Cc1ccccc1)c1ccccc1,-16%,-11%
CCSc1nc(-c2cccs2)nc2ccccc12,-18%,-10%
Cc1ccc(S(=O)(=O)N(C)Cc2ccc(C(=O)NN=C3C4CC5CC(C4)CC3C5)cc2)cc1,-20%,-23%
CCC(CC)C(=O)Nc1cc(C)c2c(=O)oc3ccccc3c2n1,i,-28%
CSc1nc(N)nc2c1ncn2CC(=O)NCCCc1ccccc1,i,-24%
COC(=O)C1=C(C)Nc2nc3ccccc3n2C1c1cc(OC)c(OC)c(OC)c1 (stereo not drawn),-2%,-5%
CCOCCCNC(=O)C1c2ccccc2Oc2ccccc21,i,-5%
CS(=O)(=O)c1ccc(Cl)c(NC(=O)C2CC(=O)N(Cc3ccco3)C2)c1 (stereo not drawn),-16%,-6%
CCOC(=O)c1noc2ncnc(Nc3cccc(C(F)(F)F)c3)c12,-11%,-2%
Cc1ccc(S(=O)(=O)NCCOC(=O)Nc2sc(=S)n(C)c2C)cc1,-6%,-12%
COc1ccc(C2NC(=S)NC(C)=C2C(=O)Nc2ccccn2)cc1OC (stereo not drawn),-15%,-3%
Cc1ccc(C(CC(=O)c2ccco2)SCCO)cc1 (stereo not drawn),-18%,-13%
CCOC(=O)c1cnc2cc(Cl)c(OC)cc2c1Nc1ccc(Br)cc1C,-11%,4%
CCCC[C@H]1COCCS(=O)(=O)N1Cc1cccc(Cl)c1,-26%&-21%,-10%&-12%
Cc1ccc(OCc2cc(=O)n3c4c(sc3n2)CCCC4)cc1C,-8%,-7%
COC(=O)c1cc(COc2ccc3oc(C)c(C(=O)OC(C)C)c3c2)c(C)o1,·,-10%
CCCCN(C(=O)CCC(=O)Nc1cc(C)on1)C(C(=O)NC(C)(C)C)c1cccc(OC)c1OC (stereo not drawn),-3%,3%
Cc1cc[n+](CC(=O)N2CCCc3ccccc32)cc1,-1%,-2%
CCOC(=O)CCC(=O)Nc1ccc(S(=O)(=O)N2CCCCC2)cc1,1%,-3%
CCc1cc(=O)oc2c(CNCc3c(F)cccc3Cl)c(O)ccc12,-12%,-17%
O=C(NCc1ccccc1)c1cc(-c2cccc(Cl)c2)on1,-4%,-6%
Cc1ccc(OCC(=O)NNC(=O)CCc2ccccc2)c(Br)c1,-5%,-10%
O=[N+]([O-])c1ccc(C(c2ccc([N+](=O)[O-])cc2)c2ccc([N+](=O)[O-])cc2)cc1,?,-29%
COc1ccc(NC(=O)CN(C)S(=O)(=O)c2cccc3nsnc23)cc1,-14%,-16%&-10%
Oc1ccc(/C=N/NC2=NCCCCC2)c(O)c1,-12%,-5%
CS(=O)(=O)Nc1ccc(Oc2ncccn2)cc1,-27%,1%
COc1ccc(-c2nn(C)c(=O)c3ccccc23)cc1CNS(C)(=O)=O,·,-13%
CN(C)/C=N/c1sccc1C(N)=O,-13%,-3%
COc1ccccc1-c1ccc2c(c1)C(C)(Cc1cc(Cl)ccc1C(F)(F)F)C(=O)N2 (stereo not drawn),1%,-17%
CC1CCc2c(sc3nnn(Cc4cccc(C(=O)OC(C)C)c4)c(=O)c23)C1 (stereo not drawn),4%,-3%
CCO[C@@H]1OC(C(=O)N2CCN(Cc3ccc4c(c3)OCO4)CC2)=C[C@H](c2ccc(C(F)(F)F)cc2)[C@H]1CCCO,-10%,-29%
COc1cc(C2SCC(=O)N2CCc2ccc(OC)c(OC)c2)ccc1O (stereo not drawn),6%,4%
CC(C)(C)OC(=O)N1CCC(c2c(C(=O)NCc3ccccc3)cnn2-c2ccc(F)cc2)CC1,-8%,-20%

Pulled by compound from the entries so far, two records:
compound,Vaccinia mCherry,Vaccinia Venus
CCCC[C@H]1COCCS(=O)(=O)N1Cc1cccc(Cl)c1,-26%&-21%,-10%&-12%
COC(=O)c1cc(COc2ccc3oc(C)c(C(=O)OC(C)C)c3c2)c(C)o1,·,-10%

Continued:
compound,Vaccinia mCherry,Vaccinia Venus
O=C(c1ccccc1)c1ccc(OCCOCCN2CCN(Cc3ccccc3)CC2)cc1,?,-26%
NC(=O)C1CCN(c2ncnc3c2cnn3-c2cccc(Cl)c2)CC1,-8%,-1%
Cc1ccc(S(=O)(=O)N2Cc3ccccc3CC2C(=O)N(C)C)cc1 (stereo not drawn),i,1%
CC(C)(C)C(=O)Cn1c(NCCO)nc2ccccc21,3%,23%
O=C(OCc1nc2ccccc2[n+]([O-])c1C(=O)c1ccccc1)c1cccs1,-18%,0%
CCNC(=O)C1(C)CCCN(C(=O)c2ccc(OC)c(F)c2)C1 (stereo not drawn),38%[activator],-12%
COc1ccc(-c2cn(-c3ccc(OC)cc3)c(=S)[nH]2)cc1,-14%,-2%
O=C(Cc1ccc(Cl)cc1)NCC(=O)N1CCCCCC1,i,-13%
CC(C)(C)Cc1c(-c2cccc(Cl)c2)nc2ccc(Br)cn12,3%,-10%
COc1ccc(F)cc1S(=O)(=O)Nc1cccc(-c2ccc(N3CCCCCC3)nn2)c1,-27%,-13%
OCCN1CCN(c2ncnc3c2c(-c2ccccc2)cn3-c2ccc(Br)cc2)CC1,3%,-4%
COc1ccc(S(=O)(=O)NC2CC2)cc1C(=O)N1CCOCC1,4%,-4%
COC(=O)C1=C(C)N(C)C(=O)NC1c1ccc(C)cc1 (stereo not drawn),-16%,-15%
O=C(CSc1nnnn1-c1ccccc1)N1N=CCC1c1ccccc1 (stereo not drawn),i,-16%
CSc1cccc(NC(=O)CN2C(=O)CCc3cc(S(=O)(=O)N4CCCCC4)ccc32)c1,-17%,-14%
O=C1C=Cc2cccc3ccc(O)c1c23,-25%,-5%
CCOc1ccc(-c2c(C)nn3c(C)c(C(=O)NCCN(C)C)cnc23)cc1OCC,-8%,-1%
Cc1ccc(C)c(NC(=O)CSc2nnc(-c3ccco3)o2)c1,-14%[1.46 µM],-24%
COc1cccc(/C=N/NC(N)=S)c1OCc1ccccc1Cl,?,?
COc1ccccc1Cn1ccn(CC(=O)Nc2c(C)cc(C)cc2C)c(=O)c1=O,-4%,-2%
CNC(=O)CN1C(=O)c2cccc3cccc1c23,·,-3%
COc1cc(/C=N/OCC(=O)Nc2cc(C)cc(C)c2)ccc1OCc1ccc(Cl)cc1,i,-14%
O=C1c2ccccc2S(=O)(=O)N1CCCN1C(=O)c2ccccc2S1(=O)=O,-9%,-2%
COc1cc2c(cc1OC)/C(=C/C(=O)c1ccc(OC)c([N+](=O)[O-])c1)NCC2,-12%,-26%
COc1ccc(CNC(=O)Cc2nn(C)c(=O)c3ccccc23)cc1,·,?
C[C@@H](CN=[N+]=[N-])CN1CC[C@H](C(C)(C)C)CCC1=O,-6%&-13%,-2%&-8%
COc1cc(OC)cc(C(=O)N2c3ccc(F)cc3CCC2C)c1 (stereo not drawn),-19%,-20%
COc1cccc(CN(C(=O)c2oc3ccc(Br)cc3c2C)C2CCS(=O)(=O)C2)c1 (stereo not drawn),-8%,-8%
COc1ccc(S(=O)(=O)NCc2cccnc2)cc1NC(=O)c1ccc(C)cc1,i,-9%
CN1CCN(C(=O)/C(C#N)=C/c2ccc(F)cc2)CC1,-2%,-10%
CCOc1ccc(CCNC(=O)Cn2nnc(-c3ccccc3)n2)cc1OCC,-6%,-9%
CCCCCCn1cc(CN2CC(N3CCN(CCN(C)C)CC3)CS2(=O)=O)nn1 (stereo not drawn),-1%,-1%
